Bioassay records as filed in PubChem BioAssay.
Ecoli rRNA inh – selective bacterial rRNA inhibition in E. coli; E. coli WT GFP vs humanized-ribosome RFP mutants, fluorescence, 24 h; hits give low values; DMSO median 0, no signal -100; 350,000 compounds, 1.6% hits; GFP signal change (wild-type ribosome), % (test concentration not listed);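 active = significant combined selectivity score with lowered wild-type GFP, culture density cut under 30%, mutant RFP and density less affected; inactive = any of these conditions unmet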; also: one replicate is shown; some compounds called inactive have numbers as strong as hits
MLL AF4-AF9 inh – blocks AF4 peptide binding to human AF9. P42568. AlphaScreen, biotin-AF4 peptide binding to FLAG-AF9. inhibition, % at 10 µM. 350,000 compounds, 0.47% hits. AID 651704;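 active = every replicate reaching a set inhibition limit, whatever the replicate mean, cut at about 25% in these data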;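 also: 0% = plate neutral control median and 100% = total signal loss; the record names both 10 and 1 µM as test concentration; the first replicate is given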
Target sequence (P42568 whole entry, looked up): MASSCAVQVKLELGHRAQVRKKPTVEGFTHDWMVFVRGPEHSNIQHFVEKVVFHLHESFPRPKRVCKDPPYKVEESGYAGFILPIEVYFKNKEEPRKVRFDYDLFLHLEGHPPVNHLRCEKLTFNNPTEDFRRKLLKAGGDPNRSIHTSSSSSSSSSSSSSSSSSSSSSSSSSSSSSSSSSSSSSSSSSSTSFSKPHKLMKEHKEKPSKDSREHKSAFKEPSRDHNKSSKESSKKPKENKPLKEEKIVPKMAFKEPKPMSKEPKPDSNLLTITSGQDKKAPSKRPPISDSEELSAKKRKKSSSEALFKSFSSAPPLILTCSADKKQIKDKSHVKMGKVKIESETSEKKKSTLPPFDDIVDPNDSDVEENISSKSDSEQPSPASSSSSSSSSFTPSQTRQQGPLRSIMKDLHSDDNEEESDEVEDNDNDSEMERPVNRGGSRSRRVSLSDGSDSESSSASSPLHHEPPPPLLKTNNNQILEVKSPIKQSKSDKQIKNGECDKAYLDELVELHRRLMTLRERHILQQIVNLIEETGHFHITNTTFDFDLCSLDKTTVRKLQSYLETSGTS
FGF22 binding – FGF22 (human) thermal shift binding. Q9HCT0. recombinant FGF22 thermal shift, SYPRO orange fluorescence; percent of sucrose octasulfate shift, DMSO zero. 340,000 compounds, 1.5% hits. calls only at 9.99 µM;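 active = melting point raised past a set limit in the mean and every replicate; three in four hits are not shown here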
Target sequence (Q9HCT0 whole entry, looked up): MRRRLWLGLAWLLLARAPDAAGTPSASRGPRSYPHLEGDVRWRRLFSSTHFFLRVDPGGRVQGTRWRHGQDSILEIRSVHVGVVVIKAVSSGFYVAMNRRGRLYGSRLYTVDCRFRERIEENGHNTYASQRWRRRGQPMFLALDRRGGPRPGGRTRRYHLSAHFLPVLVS
Beta cell apopt – blocks beta cell apoptosis. INS-1E cytokine-induced death, ATP luminescence, 48 h; percent of positive-control rescue, neutral wells zero. protection from apoptosis, % (concentration not given with the values). 300,000 compounds, 0.8% hits. AID 435005;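 active = all replicates at 75% or more, or half of them and the mean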;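 also: 0% = cytokine-treated negative control wells and 100% = positive control rescue; higher means more ATP so stronger rescue from cytokine killing; wells of about 40 µL received 100 nL stock; the first replicate is given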
Ecoli rRNA inh OD600 – second read-out of Ecoli rRNA inh, no call of its own (marks repeat the call); OD600 change, %; measured here: OD600 growth;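 optical density of the mix in the first replicate; 0 = DMSO median and -100 = no signal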
Ecoli rRNA inh RFP – recorded beside Ecoli rRNA inh, whose call it bears; RFP signal change, %; measured here: RFP humanized mutant strains;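 first replicate; 0 = DMSO median and -100 = no signal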
The depositor's hits bear a star; i = inactive; nt = not tested or not shown.

SMILES | Ecoli rRNA inh | MLL AF4-AF9 inh | FGF22 binding | Beta cell apopt | others
O=[N+]([O-])c1ccc(CSc2ccc(S(=O)(=O)N3CCCC3)cn2)cc1 | -2.0 | nt | nt | 6.9 | Ecoli rRNA inh OD600=5.2;Ecoli rRNA inh RFP=-10.3
Cc1onc(-c2ccccc2)c1C(=O)NN=Cc1cc(Cl)cc(Cl)c1O | nt | -1.7 | i | nt
Cc1cccc(S(=O)(=O)N2CCCCN3[C@H](CO)[C@H](c4ccc(-c5ccccc5)cc4)[C@H]3C2)c1 | nt | -5.3 | i | nt
COC(=O)[C@@]1(Sc2ccc(C)cc2)CC(=O)N(C(=O)/C=C/c2ccccc2)[C@@H]1c1ccccc1 | nt | 2.2 | i | nt
Cc1cc(C(=O)Nc2ccc3c(c2)C(=O)N(C)[C@@H]2CC[C@H](CC(=O)NCc4ccc(-c5ccccc5)cc4)O[C@H]2CO3)no1 | nt | 1.3 | i | nt
COc1ccc(NC(=O)O[C@H](c2ccc(OCCO)cc2)[C@@H](C)CCO)cc1 | nt | -1.2 | i | nt
CC1(C(=O)NS(=O)(=O)c2ccc3ccccc3c2)CCN1C(=O)CC1CCCCC1 (configuration not stated) | nt | -9.7 | i | nt
O=S(=O)(N[C@@H]1CCCN(Cc2ccc(OCCO)cc2)C1)c1ccc2ccccc2c1 | nt | 14.0 | i | nt
CCc1nc2ccc(C(=O)NCCCN(C)C)cn2c1N(C)CCCc1ccccc1 | nt | 4.1 | i | nt
COc1cccc(CN(C)CCCn2cnc(C(=O)Nc3ccc(C)c(C)c3)n2)c1 | nt | -9.8 | i | nt
O=C(CCc1nc2ccccc2c(=O)[nH]1)Nc1cc(Cl)ccc1N1CCCC1 | nt | -2.4 | i | nt
CCCNC(=O)Nc1ccc2c(c1)C(=O)N(C)C[C@@H](OC)[C@H](C)CN(C(=O)c1ccccc1F)[C@H](C)CO2 | nt | -37.7 | i | nt
C[C@H](CO)N1C[C@H](C)[C@H](CN(C)CC2CC2)Oc2cc(/C=C/c3ccccc3)ccc2S1(=O)=O | nt | 25.7* | i | nt
Cc1cccc(C(=O)OCC(=O)NCC2CCCO2)c1O (configuration not stated) | nt | -1.7 | i | nt
Cc1ccc(F)c(S(=O)(=O)NC(=O)C2(C)CCN2C(=O)Cc2ccc(-c3ccccc3)cc2)c1 (configuration not stated) | nt | 0.7 | i | nt
O=C(NCCn1cc(CN2C(=O)COC[C@H]2c2ccccc2)nn1)Nc1ccccc1 | nt | -3.8 | i | nt
COc1ccc(CCC(=O)N2CCN(S(=O)(=O)c3ccc(OC)c([N+](=O)[O-])c3)CC2)cc1 | nt | 3.5 | i | nt
CC1(C(=O)Nc2cccc3ccccc23)CCN1C(=O)Cc1ccccc1Cl (configuration not stated) | nt | -0.5 | i | nt
COC(=O)[C@]12CCCCC=C1N(Cc1ccccc1)C(=O)[C@H](CC(=O)N1CCSCC1)C2 | nt | 3.2 | i | nt
CCCCN1C[C@H](c2ccc(OC)cc2)[C@@H](CC(=O)Nc2ccc(OC)cc2)C1=O | nt | -0.1 | i | nt

The last four records of the part before lead into the next.
SMILES | Ecoli rRNA inh | MLL AF4-AF9 inh | FGF22 binding | Beta cell apopt | others
COc1ccc(CCC(=O)N2CCN(S(=O)(=O)c3ccc(OC)c([N+](=O)[O-])c3)CC2)cc1 | nt | 3.5 | i | nt
CC1(C(=O)Nc2cccc3ccccc23)CCN1C(=O)Cc1ccccc1Cl (configuration not stated) | nt | -0.5 | i | nt
COC(=O)[C@]12CCCCC=C1N(Cc1ccccc1)C(=O)[C@H](CC(=O)N1CCSCC1)C2 | nt | 3.2 | i | nt
CCCCN1C[C@H](c2ccc(OC)cc2)[C@@H](CC(=O)Nc2ccc(OC)cc2)C1=O | nt | -0.1 | i | nt
CCN1C(=O)[C@H]2[C@@H](c3ccc(C(F)(F)F)cc3)N[C@]3(CCCN(Cc4ccc(C(F)(F)F)cc4)C3=O)[C@H]2C1=O | nt | 0.3 | i | nt
OC[C@@H]1[C@H](c2ccc(C3=CCCC3)cc2)[C@H]2CN(CCC(F)(F)F)CCCCN12 | nt | 16.4 | i | nt
CC(C)(CNC(=O)c1cccc(S(=O)(=O)N2CCCCC2)c1)N1CCOCC1 | nt | -1.9 | i | nt
CN(C)CCCCCCNC(=O)[C@@H]1C[C@@H]2C(=O)N3CCC[C@H]3C(=O)N2[C@@H]1c1ccc(O)cc1 | nt | 28.7* | i | nt
C=CCN1CCc2nc(N)sc2CC1 | nt | 6.3 | i | nt
CCCCNC(=O)C1c2ccccc2OCC(=O)N1CCCN1CCOCC1 (configuration not stated) | nt | 1.6 | i | nt
CC(NS(=O)(=O)c1cc2c3c(c1)CCN3C(=O)CC2)c1ccccc1 (configuration not stated) | nt | -14.3 | i | nt
CCOC(=O)[C@]12CCC=C1N(CCC1=CCCCC1)C(=O)[C@H](CC(=O)NCc1cccs1)C2 | nt | 0.3 | i | nt
CCOC(=O)C1=CNS(=O)(=O)NC1c1ccc(C)cc1 (configuration not stated) | nt | -3.3 | i | nt
CCOc1ccc(N2C(=O)CS(=O)(=O)C2c2ccccc2)cc1 (configuration not stated) | nt | -2.3 | i | nt
O=C(C1=C[C@@H](c2ccc(Br)cc2)C[C@@H](OCCCCO)O1)N1CCCCCCC1 | nt | -3.8 | i | nt
Cc1ccc(F)cc1S(=O)(=O)N[C@@H]1CCN(C(=O)c2ccc(OC(C)C)cc2)C1 | nt | 2.5 | i | nt
COc1ccc([Si](C)(C)[C@H]2[C@H](CCn3cc([C@H](O)c4ccccc4)nn3)O[C@@]3(C(=O)N(C)c4ccccc43)[C@@H]2C)cc1 | nt | -0.2 | i | nt
COC(=O)[C@H]1[C@@H]2COc3ccccc3[C@H]2N[C@H]1C(=O)OC | nt | -3.4 | i | nt
FC(F)(F)c1ccccc1Cc1c(-c2ccc(Cl)cc2)nc2ccc(Cl)cn12 | nt | -3.5 | i | nt
CCCCN1C[C@H](C)[C@@H](CC(=O)Nc2ccccc2)C1=O | nt | -0.7 | i | nt
C=C(C)[C@@H]1C2=CC(C(=O)OC)=C(C[C@H](C(=C)C)[C@H]3O[C@H]3C3=C[C@H]1OC3=O)O2 | nt | -1.7 | i | nt
COCCN1C(=O)COc2ccccc2C1C(=O)NCc1ccccc1 (configuration not stated) | nt | 0.0 | i | nt
CCOC(=O)NC(=S)Nc1cccc(C)n1 | nt | -1.4 | i | nt
COCCN(CC(=O)Nc1cccc(C)c1C)C(=O)/C=C/c1ccc2c(c1)OCCO2 | nt | -0.6 | i | nt
O=C(NCc1ccc(Cl)nc1)c1ccc2sc([C@@H]3O[C@H](CO)[C@H](O)[C@H](O)[C@H]3O)nc2c1 | nt | -2.1 | i | nt
O=C1NC[C@H](CC2CCCCC2)N(CCc2cccc3ccccc23)C1=O | nt | 0.8 | i | nt
COc1ccc([Si](C)(C)[C@H]2[C@H](CCO)O[C@@]3(C(=O)N(C)c4ccccc43)[C@@H]2C)cc1 | nt | 2.0 | i | nt
Cc1ccc(S(=O)(=O)OCC(=O)Nc2ccc(C(=O)O)c(O)c2)cc1 | nt | -5.3 | i | nt
O=C(NCC(O)CO)[C@]1(Cc2ccccc2)N=C(c2ccc(OCCCO)cc2)O[C@@H]1c1ccccc1 (some centres not stated) | nt | -15.3 | i | nt
CCCCCCCCC(=O)N1C(C)CCC1C (configuration not stated) | nt | 0.8 | i | nt
CC(C)NC(=O)[C@@]1(c2ccc([N+](=O)[O-])cc2)CC(=O)N(CC23CC4CC(CC(C4)C2)C3)[C@@H]1c1ccc(CO)cc1 | nt | 12.8 | i | nt
c1c[nH]c(CN2CCN(Cc3ncc[nH]3)CC2)n1 | nt | 27.7* | i | nt
COc1ccc(CN(C)C[C@H]2Oc3c(NC(=O)Nc4ccc(C(F)(F)F)cc4)cccc3C(=O)N([C@H](C)CO)C[C@@H]2C)cc1 | nt | 2.3 | i | nt
O=[N+]([O-])c1ccc(Sc2nc3ccccc3[nH]2)c(Cl)c1 | nt | -6.6 | i | nt
CCOC(=O)N1CCN(C(=O)C[C@@H]2C[C@@]3(C(=O)OC)CCCCC=C3N(Cc3ccccc3)C2=O)CC1 | nt | 1.8 | i | nt
COC(=O)c1cc2c(c3c4cc(C)ccc4n(S(=O)(=O)c4ccc(OC)cc4)c13)C(=O)N(Cc1ccc(C(F)(F)F)cc1)C2 | nt | -0.8 | i | nt
COc1ccc([Si](C)(C)[C@@H]2[C@@H](CCn3cc([C@H](O)c4ccccc4)nn3)O[C@]3(C(=O)N(Cc4cccc(N5CCOC5=O)c4)c4ccccc43)[C@H]2C)cc1 | nt | -1.1 | i | nt
OC(c1ccc(F)c(F)c1)c1nc(-c2cnc3ccccc3c2)cs1 (configuration not stated) | nt | -1.9 | i | nt
COc1ccc(NC(=O)C(OC(=O)Cn2cnc3c2c(=O)n(C)c(=O)n3C)c2ccccc2)cc1Cl (configuration not stated) | nt | 0.9 | i | nt
Cc1nc(S(=O)(=O)N2CCN(Cc3ccc(OCCO)cc3)CC2)cn1C | nt | -3.1 | i | nt
Cc1ccc(Nc2nc(C)cc(C)c2C#N)c(C)c1 | nt | 1.3 | i | nt
COc1cccc(NC(=O)COC(=O)/C=C/c2ccco2)c1 | nt | -3.5 | i | nt
COc1ccc(COCC23N=C4SCc5ccccc5CN4[C@H](c4ccccc4O2)[C@H]3COC(=O)c2ccccc2)cc1 | nt | 0.0 | i | nt
CCCNC(=O)[C@@]1(C)c2ccccc2C(=O)N(Cc2ccccc2)[C@H]1c1ccc(CO)cc1 | nt | -1.5 | i | nt
Cc1ccc(C(C)C)c(O)c1C(=O)O | nt | -2.1 | i | nt
CC12CCC(=O)C=C1CCC1C2CCC2(C)C(C(=O)CO)CC(O)C12 (configuration not stated) | nt | 0.0 | i | nt
O=C(NCc1ccccc1)C1CNCC(C(=O)NCc2ccccc2)C1 (configuration not stated) | nt | 1.0 | i | nt
C(=C\c1ccc2nncn2c1)/c1ccccc1 | nt | 4.8 | i | nt
O=S(=O)(Nc1ccc(-c2cn3c(n2)SCC3)cc1)c1cc(F)ccc1F | nt | 1.1 | i | nt
COc1cc(C(C)=O)ccc1OCC(=O)N1CCC(Cc2ccccc2)CC1 | nt | -0.8 | i | nt
N#CC1(Nc2ccc(-c3ccc(NC4(C#N)CCCC4)cc3)cc2)CCCC1 | nt | 1.1 | i | nt
O=C(CN1CCN(C(=O)CCC(=O)N2CCC(c3ccccc3)=N2)CC1)Nc1cccc(F)c1 | nt | 0.7 | i | nt
O=C(NCc1ccccc1)C1c2ccccc2OCC(=O)N1CCc1ccccc1 (configuration not stated) | nt | -1.2 | i | nt
O=C1O[C@@H](c2ccccc2)[C@@H](c2ccccc2)N2[C@@H](c3ccccc3OCCO)[C@]3(C(=O)Nc4ccccc43)[C@@H](C(=O)N3CCCCCCC3)[C@H]12 | nt | 2.3 | i | nt
More compounds
SMILES | Ecoli rRNA inh | MLL AF4-AF9 inh | FGF22 binding | Beta cell apopt | others
Cc1ccccc1Nc1ncnc2[nH]ncc12 | nt | -2.6 | i | nt
Cc1ccc(O)c(Cc2cc(C)cc(Cc3cc(C)ccc3O)c2O)c1 | nt | -0.2 | i | nt
O=C(NCc1ccccc1)c1cc(C2COCCN2S(=O)(=O)c2cccs2)on1 (configuration not stated) | nt | 2.1 | i | nt
CN(C(=O)NC1CCCCC1)[C@H]1C[C@H]2c3[nH]c4ccccc4c3CCN2C(=O)[C@H]1CO | nt | -1.6 | i | nt
CC(N)c1csc(NC(=O)c2cc(C(C)(C)C)nn2Cc2ccccc2)n1 (configuration not stated) | nt | 15.1 | i | nt
C/C(=C\c1ccccc1)C(=O)N1CCC=CC1=O | nt | -4.3 | i | nt
CCN(CC)C(=O)C1=C(C)N(CCC2=CCCCC2)C(=O)C(CC(=O)NCCCN(C)C)C1 (configuration not stated) | nt | 3.2 | i | nt
Cc1cc(C(=O)CN2C(=O)NC(C)(c3ccc(F)c(F)c3)C2=O)c(C)n1C1CC1 (configuration not stated) | nt | 5.7 | i | nt

In the list so far, 3 have two or more sulfur atoms.
SMILES | Ecoli rRNA inh | MLL AF4-AF9 inh | FGF22 binding | Beta cell apopt | others
O=[N+]([O-])c1ccc(CSc2ccc(S(=O)(=O)N3CCCC3)cn2)cc1 | -2.0 | nt | nt | 6.9 | Ecoli rRNA inh OD600=5.2;Ecoli rRNA inh RFP=-10.3
O=S(=O)(Nc1ccc(-c2cn3c(n2)SCC3)cc1)c1cc(F)ccc1F | nt | 1.1 | i | nt
O=C(NCc1ccccc1)c1cc(C2COCCN2S(=O)(=O)c2cccs2)on1 (configuration not stated) | nt | 2.1 | i | nt

These rows are one share of the data (hit frequency here may not be typical).
